Tgondii IFNg – T. gondii growth inhibition under IFN-gamma; activity change, negative = inhibition, %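 (about 20 µM by stock and volumes)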; Toxoplasma gondii growth in IFN-gamma-treated host cells; stronger effect = lower value; reference of the scale not given here; hit rate 3.8% among 69,000;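 active = below -70%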;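 note: host cells are HeLa cells infected with Toxoplasma gondii; parasite growth read as luciferase light; one replicate is shown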
Active calls of the source: *; i = inactive. Only part of the results is shown, so the mix of outcomes need not match the whole.

SMILES | Tgondii IFNg
CCN(CC)C(=O)CC1CC2(CCN(C(=O)c3ccco3)CC2)Oc2ccccc21 (stereo not drawn) | -8
CC(=O)Nc1ccc(S(=O)(=O)N2C3CCCC2CC(NC(=O)c2ccccc2)C3)cc1 (stereo not drawn) | -16
Cc1ccc(S(=O)(=O)N(C)Cc2nc(-c3ccccc3C)oc2C)c(C)c1 | -13
CCC(=O)N1CCCC(C2C(=O)Nc3ccccc32)C1 (stereo not drawn) | 1
C=C1C2=CC(=O)O[C@@H](c3ccoc3)[C@]2(C)CCC1[C@@]1(C)C=CC(=O)C(C)(C)[C@@H]1CC(=O)OC (stereo partly drawn) | 8
COc1ccc(CN(C)C(=O)c2ccc(-n3cnnc3)cc2)c2cccnc12 | 0
CCS(=O)(=O)Nc1ccc2c(c1)C(=O)N(C)[C@H]1CC[C@@H](CC(=O)N[C@H]3CCN(Cc4ccccc4)C3)O[C@H]1CO2 | 1
O=C(c1cc(-c2ccccc2F)no1)N1CCc2nc(C3CCCN3)ncc2C1 (stereo not drawn) | 3
Cc1nc(C(C)N(C)Cc2cnc(-c3cccs3)nc2)c(C)s1 (stereo not drawn) | 6
Cc1ccc(C(=O)N2CCC3(CC2)Nc2cc(F)ccc2-n2cccc23)cc1C | 45

Overlap with the part before: 2 entries, then new ones.
SMILES | Tgondii IFNg
Cc1nc(C(C)N(C)Cc2cnc(-c3cccs3)nc2)c(C)s1 (stereo not drawn) | 6
Cc1ccc(C(=O)N2CCC3(CC2)Nc2cc(F)ccc2-n2cccc23)cc1C | 45
CC[C@H]1CC=CC[C@@H](C)Oc2ccccc2C(=O)N(C)[C@H](C)C(=O)N1 (mixture of isomers) | -32
CCCC(=O)Nc1ccc2c(c1)C(=O)N(C)[C@H]1CC[C@@H](CC(=O)N3CCCCC3)O[C@H]1CO2 | 2
CC1CCc2c(sc(NC(=O)CCn3c(=O)sc4ccccc43)c2C(N)=O)C1 (stereo not drawn) | 30
CC(=O)OC1CC2CCC1(C)C2(C)C (stereo not drawn) | 15
OCC1CCN(Cc2cn(Cc3ccccc3)nc2-c2cc3ccccc3o2)CC1 | 8
CCOCC1CC2(CCN(C(=O)Cc3ccccc3F)CC2)CO1 (stereo not drawn) | 219
CO[C@@H]1CN(C)C(=O)c2cc(NC(=O)NC(C)C)ccc2OC[C@@H](C)N(C(=O)CN(C)C)C[C@H]1C | 25
O=C(C[C@@H]1CC[C@H]2[C@@H](COC[C@H](O)CN2C(=O)Nc2ccccc2)O1)NCc1ccccc1F | -19
COc1ccc2cc(CN3CCN(c4cccc(C)n4)CC3)c(=O)[nH]c2c1 | -38
Cc1cc(CN2CC[C@H]3C[C@@H](C(=O)Nc4cnccn4)O[C@H]3C2)oc1C | 17
COc1ccc2c(c1)OC1(CCN(Cc3nc4sc(C)cc4c(=O)[nH]3)CC1)CC2=O | -12
Cc1ccsc1[C@@H]1CCN(Cc2cccn2-c2ncccn2)C[C@H]1O | 2
NC1=NCN([C@H]2C[C@@H](O)[C@@H](CO)O2)C(=O)N1 | 8
COCCN1CCC2(CCCN(Cc3nccn3C)C2)C1=O (stereo not drawn) | -7
O=C(CSCc1csc2ccccc12)NCc1ccc2c(c1)OCO2 | 7
O=C(c1ccc(N2CCCC2=O)cc1)N1CC[C@@H](c2ccc(F)cc2)[C@H](O)C1 | -7
COc1cccc(NC(=O)c2nc(Nc3ccc(C)cc3)c3ccccc3n2)c1 | -88*
CN1C[C@@H]2[C@H](c3ccccc31)[C@H](CO)N2C(=O)c1cccnc1 | 1
CCSc1nc(CC(=O)NCC2(CO)CCOCC2)cs1 | 0
O=C(Cn1ncc2c(N3CCCCC3)ncnc21)Nc1ccc(F)cc1F | 23
CO[C@@H]1CN(C)C(=O)c2ccc(NC(=O)NC(C)C)cc2OC[C@@H](C)N(Cc2ccc(-c3ccccn3)cc2)C[C@@H]1C | 128
O=C(Cc1ccccc1)N1CC(=O)N2[C@H](C1)[C@@H](c1ccc(-c3ccc(F)cc3)cc1)[C@@H]2CO | -70
Cc1cc(C)n(CCC2CC(=O)Nc3c2ccc(N2CCCC2)c3C)n1 (stereo not drawn) | -5
COc1ccc2c(c1)NC1(CCN(C(=O)Nc3ccc(C)cc3C)CC1)c1cccn1-2 | 170
CCS(=O)(=O)N1C[C@H]2C[C@@H](Cc3nc(C)no3)O[C@H]2C1 | 2
c1ccc(CN2CC(c3nn[nH]n3)CN(Cc3ccccc3)C2)cc1 | 44
O=C(c1ccc(F)cc1)N1CC(C(=O)N2CCOCC2)C2(CCOCC2)C1 (stereo not drawn) | -4
O=c1c2c3c(sc2ncn1CCCn1ncc2ccccc21)CNCC3 | -2
CN(C)CCOc1ccc(-c2nc(-c3ccc4c(c3)CC/C4=N\O)c(-c3ccncc3)[nH]2)cc1 | -79*
COC(=O)c1c(NCc2ccc3c(c2)OCO3)c2cccc(Cl)c2[nH]c1=O | 82
CCC(c1ncnn1C)n1ccnc1-c1ccsc1 (stereo not drawn) | -38
Cc1cc(NC(=O)CN2CCCC(c3ccc(C(=O)N4CCCC4)cn3)C2)no1 (stereo not drawn) | 19
CC(=O)Nc1ncc(S(=O)(=O)NCCn2nc(C)c(C)c2C)s1 | 28
CCCN1[C@H](C(=O)N2CCOCC2)[C@@H](CO)[C@@H]2Cn3c(ccc(-c4ccccc4F)c3=O)[C@@H]21 | 2
CO[C@@H]1CN(C)C(=O)c2cc(NS(C)(=O)=O)ccc2OC[C@H](C)N(C(=O)C2CCOCC2)C[C@H]1C | 58
COc1ccc(C[C@@H]2CCn3nncc3COC[C@@H](c3ccccc3)NC2=O)cc1 | 83
COc1ccc(C(=O)NCCc2csc(-c3cccc(C)c3)n2)cc1OC | i
O=c1c(Cl)c2oc3ccc(Cl)cc3nc-2c2ccccc12 | 82
CCOc1ccccc1NC(=O)C(=O)NCCc1sc(-c2ccccc2)nc1C | i
COCc1nc(NC(C)c2nncn2C(C)C)c2cnn(C)c2n1 (stereo not drawn) | 9
CN(CCCn1cccn1)Cc1ccsc1 | 2
CCc1cnc(N2CCC(c3nc(COc4ccc(-n5cnnn5)cc4)cs3)CC2)nc1 | -63
Cc1noc(C)c1S(=O)(=O)N(C)C[C@@H]1Oc2c(NS(=O)(=O)c3cn(C)cn3)cccc2C(=O)N([C@H](C)CO)C[C@@H]1C | 23
CC(CCn1cccn1)NC(=O)C(C)(C)NC(=O)c1cccs1 (stereo not drawn) | 13
C[C@@H]1CN([C@H](C)CO)C(=O)c2cc(NS(C)(=O)=O)ccc2O[C@@H]1CN(C)C | -54
CSc1nn(-c2ccccc2)cc1C(=O)Sc1ccccn1 | 27
CSc1nc(-c2ccc(Cl)cc2)nc(N)c1-c1ccccc1 | 207
O=C(CN1CCN(C2CCCC2)C(=O)C1)Nc1ccccc1-n1ccnc1 | -3
Brc1ccc2[nH]c3c(c2c1)CCCC3NCc1ccccc1 (stereo not drawn) | -98*
OC(CN1CCN(c2ccc(F)cc2)CC1)C(F)(F)F (stereo not drawn) | -43
Other records follow.
SMILES | Tgondii IFNg
CCn1cc(S(=O)(=O)N2CCCCCC2c2cc(C)no2)c(C)n1 (stereo not drawn) | -8
CC(C)N1CCC2(C=C(C(=O)NC3CC3)c3ccccc32)CC1 | -4
CCOC(=O)C1CCN(Cc2cn3cc(F)ccc3n2)CC1 | 58
Cc1ncc(S(=O)(=O)C(C)(C)C)c(N)n1 | 48
Cn1cnc(S(=O)(=O)NC2CCc3c(ccc(=O)n3C)C2)c1 (stereo not drawn) | 8
COc1cccc(-n2c(C)c3c(OC)cccc(=O)c3c2C)c1 | 60
CC(=O)c1ccc(S(=O)(=O)N2CCC(Nc3nc(C)cc(=O)[nH]3)CC2)cc1 | 0
Cc1ccc(Cl)cc1NC(=O)CC(=O)NC1CCN(S(C)(=O)=O)CC1 | 69
Cc1cccc(C)c1OC1CN(C(CO)CO)C1 | -5
C=CCN1CCN(C)C(=O)C12CCN(Cc1cncn1C)C2 (stereo not drawn) | 90
Cc1noc([C@H]2C[C@@H]3CCN(S(=O)(=O)N(C)C)C[C@@H]3O2)n1 | 92
CC(=O)N1CCCn2nc(C(=O)NCc3ccc4sccc4c3)cc2C1 | 16
O=C1c2ccccc2C(=O)N1CCCn1nnc(-c2ccc(F)cc2)n1 | -9
COc1ncc(C(=O)NC(C)C23CC4CC(CC(O)(C4)C2)C3)cn1 (stereo not drawn) | -11
O=S(=O)(c1ccccc1)N1CCC2(CCCN2Cc2cccc(F)c2)C1 (stereo not drawn) | 9
O=S1(=O)CC=C(S(=O)(=O)N2CCCC3(CCNC3)C2)C1 (stereo not drawn) | 6
COC(=O)c1c(NC(=O)C(C)C)sc2c1C(C(=O)OC)CC2 (stereo not drawn) | -94*
CN1CCN(C(=O)c2coc(COc3cccc(C(F)(F)F)c3)n2)CC1=O | -3
CN(C)S(=O)(=O)c1ccc2c(c1)cc(C(=O)NCCc1ccco1)n2Cc1ccncc1 | 22
COc1cccc(-n2c(=O)c(C(=O)Nc3ccc(F)cc3F)c(O)c3cccnc32)c1 | 19

Reprinted from the results shown for reference:
SMILES | Tgondii IFNg
CC(=O)c1ccc(S(=O)(=O)N2CCC(Nc3nc(C)cc(=O)[nH]3)CC2)cc1 | 0
Cc1ccc(Cl)cc1NC(=O)CC(=O)NC1CCN(S(C)(=O)=O)CC1 | 69
Cc1cccc(C)c1OC1CN(C(CO)CO)C1 | -5
C=CCN1CCN(C)C(=O)C12CCN(Cc1cncn1C)C2 (stereo not drawn) | 90
Cc1noc([C@H]2C[C@@H]3CCN(S(=O)(=O)N(C)C)C[C@@H]3O2)n1 | 92
CC(=O)N1CCCn2nc(C(=O)NCc3ccc4sccc4c3)cc2C1 | 16
O=C1c2ccccc2C(=O)N1CCCn1nnc(-c2ccc(F)cc2)n1 | -9
COc1ncc(C(=O)NC(C)C23CC4CC(CC(O)(C4)C2)C3)cn1 (stereo not drawn) | -11
O=S(=O)(c1ccccc1)N1CCC2(CCCN2Cc2cccc(F)c2)C1 (stereo not drawn) | 9
O=S1(=O)CC=C(S(=O)(=O)N2CCCC3(CCNC3)C2)C1 (stereo not drawn) | 6
COC(=O)c1c(NC(=O)C(C)C)sc2c1C(C(=O)OC)CC2 (stereo not drawn) | -94*
CN1CCN(C(=O)c2coc(COc3cccc(C(F)(F)F)c3)n2)CC1=O | -3
CN(C)S(=O)(=O)c1ccc2c(c1)cc(C(=O)NCCc1ccco1)n2Cc1ccncc1 | 22
COc1cccc(-n2c(=O)c(C(=O)Nc3ccc(F)cc3F)c(O)c3cccnc32)c1 | 19

Remaining list, next part.
SMILES | Tgondii IFNg
COCCN(C[C@H]1[C@H](c2ccccc2)[C@H](CO)N1C(C)=O)C(=O)c1cccnc1 | 1
COc1ccc2c3c(n(C)c2c1)[C@H](CO)N(C(=O)Nc1ccccc1F)CC31CN(C(=O)c2ccccc2F)C1 | -7
O=C(Nc1cncc(C#Cc2ccccc2)c1)N1CCCC1 | -62
Cc1[nH][nH]c(=O)c1C1(C(C#N)C#N)C2CC3CC(C2)CC1C3 (stereo not drawn) | -50
O=C(c1ccco1)N1Cc2nccn2CC(COc2cccnc2)C1 (stereo not drawn) | 0
COc1cc2c(cc1OC)C(c1c(C)nn(-c3ccccc3)c1Cl)CC(=O)N2 (stereo not drawn) | -47
O=C(CCC1N=C2c3ccccc3N=C(SCc3ccccc3F)N2C1=O)NCc1ccccc1 (stereo not drawn) | 3
CCC(C)N(CC1=CCN(Cc2ncccn2)CC1)C(C)=O (stereo not drawn) | 7
CC(=O)Nc1cc(C2=CCCN(CC(C)N3CCOCC3)C2)nn1C (stereo not drawn) | -4
CC(C)c1noc(C2CCN(C(=O)C3CC4(CCNCC4)CN3)CC2)n1 (stereo not drawn) | 39
Cc1nc(-c2ccc(F)cc2)nc2c1CCN(C(=O)C1CCOC1)CC2 (stereo not drawn) | -3
COc1ccc(CNC(=O)CC2N=C3c4ccccc4N=C(SCc4ccc(C)cc4C)N3C2=O)cc1 (stereo not drawn) | 3
Cc1cc(C(=O)Nc2cccc3c2O[C@H](CN(C)C)[C@H](C)CN([C@@H](C)CO)C3=O)n(C)n1 | 8
O=C(CN1C(=O)CCc2cc(Br)ccc21)NCc1ccco1 | 7
Cc1cc(C(=O)NCCC(=O)Nc2cccc3ccccc23)n[nH]1 | -7
CCOC(=O)C1CCN(C(=O)CCNc2c(C)nc3cnccn23)CC1 | 80
Cc1ccc2[nH]c(C(=O)NCc3ccccn3)c(NC(=O)c3ccc(Cl)cc3)c2c1 | 12
CC(C)OCCCN1CC(C(=O)O)CC1=O (stereo not drawn) | 4
Cc1nc(-c2ccc(F)cc2)sc1CCNC(=O)C(=O)Nc1ccc2c(c1)OCO2 | -72*
Cc1nn(-c2ccc(F)cc2)c(C)c1Cn1ccnc1-c1cccnc1 | -8
Cc1nc(SCC(=O)NC(C)COc2c(C)cccc2C)n[nH]1 (stereo not drawn) | -1
CCNC(=O)Cc1ccc(-c2ccc3c(c2)OCCO3)cc1 | -74*
Cc1ccc(-c2coc(-c3ccc(NC(=O)Cc4cccs4)cc3)n2)c(C)c1 | 7
CCc1c(C)nn(CC(=O)N2CCC3(CCCNC3)C2)c1C (stereo not drawn) | 4
C=CCn1c(=O)c(C(=O)Nc2ccccc2CC)c(O)c2ccccc21 | 28
Cc1ccc2oc(=O)c(CCC(=O)Nc3nnc(C4CCCCC4)s3)nc2c1 | 47
C=CCN1CCC2(CCCN(Cc3nccn3C)C2)C1=O (stereo not drawn) | -27
O=C(NCc1ccc(Cl)cc1)NCC1CNCCOC1 (stereo not drawn) | 21
COc1ccc(NC(=O)CN2CCC3(CC2)N=C(c2ccc(F)cc2)C(=O)N3)cc1Cl | -34
COc1cccc(-c2nc3cnccn3c2NCCC(=O)N2CCCC(C)C2)c1 (stereo not drawn) | 161
CS(=O)(=O)N1CC[C@@H]2C[C@@H](C(=O)N3CCCCO3)O[C@H]2C1 | -42
O=C(Nc1ccccc1F)N1CCCCN2[C@H](CO)[C@@H](c3ccc(/C=C/c4ccccc4)cc3)[C@H]2C1 | -48
N#Cc1cnc(Sc2nnc(-c3ccc(Cl)cc3)n2Cc2ccccc2)nc1N | -42
Cc1nn(C)cc1-c1ccnc(N2CCCN(c3ccc(F)cc3)CC2)n1 | -60

Screening results: PubChem, Broad Institute
